MARV entry inh: inhibitors of Marburg virus binding or cell entry; Potency, µM (top dose mostly 37.8 µM), for the others: at the top dose activity change, negative = inhibition, most hits filed as inhibitors; Marburg virus pseudotyped entry inhibition, cell reporter; control for the full effect not named in the record; about a third of the inactives were read at about 46 µM; 1.8% of 300,000 active; active = well fitted inhibition curve with a large enough effect; inconclusive = small, poorly fitted or top-dose-only effect, or effect the other way; inactive = flat fitted curve, though single readings scatter; tested in HEK293 cells; about a fifth of its hits are not listed in these tables; further: on the % scale 0 is the no-effect control and ±100 the full control effect; luciferase read-out
Lassa entry inh: inhibitors of Lassa virus binding or cell entry; Lassa virus pseudotype entry inhibition, cell reporter; control for the full effect not named in the record; Potency, µM (doses to about 37.9 µM), for the others: at the highest dose activity change, negative = inhibition, most hits filed as inhibitors; 1.2% of 300,000 active; AID 540256; active means well fitted inhibition curve with a large enough effect; inconclusive means small, poorly fitted or top-dose-only effect, or effect the other way; inactive means flat fitted curve, though single readings scatter; tested in HEK293 cells; further: on the % scale 0 is the no-effect control and ±100 the full control effect; nearly all actives have a fitted effect of over 50% in size; luciferase read-out
Cruzain noTriton: inhibitors of Trypanosoma cruzi cruzain without detergent. 2.3% of 200,000 active. Potency, µM, for the others: max response, negative = inhibition, most hits filed as inhibitors. purified cruzain, Z-FR-AMC fluorescence, no detergent. AID 1476;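 further: plate controls were enzyme without inhibitor for no effect and buffer without enzyme for full effect; nearly all actives have a fitted effect of over 40% in size; top concentration of the series not given in the record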
Target sequence (P25779 123-467 limits assumed): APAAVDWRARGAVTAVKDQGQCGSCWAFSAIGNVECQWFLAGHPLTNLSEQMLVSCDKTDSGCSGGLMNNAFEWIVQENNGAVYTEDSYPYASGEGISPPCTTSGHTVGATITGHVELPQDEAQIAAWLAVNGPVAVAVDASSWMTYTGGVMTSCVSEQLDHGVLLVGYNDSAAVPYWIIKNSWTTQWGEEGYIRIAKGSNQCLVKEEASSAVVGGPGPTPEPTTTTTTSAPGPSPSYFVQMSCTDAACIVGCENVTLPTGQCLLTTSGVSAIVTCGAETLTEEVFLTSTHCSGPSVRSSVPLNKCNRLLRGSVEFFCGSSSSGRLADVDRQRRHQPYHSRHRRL
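Detergent-free condition (0.00005% Triton X-100) in acetate buffer pH 5.5 with DTT. 1.5 nM enzyme and compound were pre-mixed 15 min, then 2 uM Z-FR-AMC substrate added; reaction progress from fluorescence change between first and third reads (60 s).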
SARS PLP yeast: inhibitors of SARS-CoV papain-like protease in yeast. AID 485353. 0.19% of 330,000 active. Potency, µM (titrated, usually from 32.9 µM), for inactives: at the top dose activity, positive = growth rescue. S. cerevisiae expressing SARS-CoV PLpro, growth rescue; control for the full effect not named in the record; active means well fitted rising curve with a large enough effect; inconclusive means small, poorly fitted or top-dose-only effect; inactive means no such curve, though single readings can be large or run the other way; further: 0% is about no effect; nearly all actives have a fitted effect of over 55% in size; growth read by luminescence after 48 h
RE007 growth inh: less growth of the S. pombe RE007 Vpr strain. Potency, µM (highest dose often 92.2 µM), inactives show at the highest dose activity change, negative = less growth. 0.21% of 360,000 active. AID 651644. S. pombe RE007 Vpr strain, BacTiter-Glo ATP luminescence, 24 h; control for the full effect not named in the record; active = well fitted falling curve with a large enough effect; inconclusive = small, poorly fitted or top-dose-only effect; inactive = no such curve, though single readings can be large or run the other way;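 further: on the % scale 0 is the no-effect control and ±100 the full control effect; nearly all actives have a fitted effect of over 50% in size; the assay follows cell death caused by Vpr and the record does not say whether a fall means rescue or toxicity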
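Fission yeast RE007 carrying one integrated HIV-1 vpr copy, seeded at OD 0.01 in PMG+AL medium with 23 nL pinned compound. Grown 24 h at 30 degrees; viability read by BacTiter-Glo luminescence after 5 min.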
2A StopGo: lowers the luciferase signal of an FMDV 2A StopGo reporter | human cells with a luciferase reporter of 2A StopGo recoding; control for the full effect not named in the record | Potency, µM (titrated, usually from 57.9 µM), for inactives: top-dose signal change, negative = less light | 1.2% of 410,000 active; active = well fitted falling curve with a large enough effect; inconclusive = small, poorly fitted or top-dose-only effect; inactive = no such curve, though single readings can be large or run the other way; tested in HEK293T cells; further: on the % scale 0 is the no-effect control and ±100 the full control effect; nearly all actives have a fitted effect of over 45% in size; luciferase light after 4 h
NS1 function inh: influenza NS1 inhibition | Potency, µM (titrated, usually from 46.1 µM), for the others: at the highest dose activity, positive = more growth | S. cerevisiae slowed by influenza A NS1, growth recovery by OD600 | 0.4% of 270,000 active; active means well fitted rising curve with a large enough effect; inconclusive means small, poorly fitted or top-dose-only effect; inactive means no such curve, though single readings can be large or run the other way; further: nearly all actives have a fitted effect of over 50% in size
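OD600 was taken as the measure of yeast growth restored by compound in an NS1-expressing S. cerevisiae strain. Cells had been washed out of glucose medium and diluted 1:100 into galactose -URA medium, pH 6.0.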
Cruzain Triton: blocks cruzain activity in presence of Triton detergent; 0.43% of 200,000 active; Potency, µM, for inactives: max response, negative = inhibition, hits mostly inhibitors; AID 1478; P25779; purified cruzain, Z-FR-AMC fluorescence, 0.01% Triton;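 further: plate controls were neutral wells for no effect and buffer without enzyme for full effect; nearly all actives have a fitted effect of over 40% in size; top concentration of the series not given in the record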
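Cysteine protease activity tested under reducing, mildly acidic conditions (100 mM sodium acetate pH 5.5, 5 mM DTT) plus 0.01% Triton X-100. Cruzain 1.5 nM; substrate Z-FR-AMC 2 uM; 15 min compound preincubation at room temperature.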
* marks the source's active call; other numbers are inactive results; ? = inconclusive; / = not tested or not shown; & = joins results of further samples; [ ] = another dose, or the depositor's remark. Unless noted, the call rests on the fitted dose curve; in most records, active means well fitted curve in the direction sought with a large enough effect; inconclusive means small, poorly fitted or top-dose-only effect, or another doubt; inactive means no such curve, though single readings can be large; an effect the other way counts as inactive or inconclusive. Potency means the concentration at half of the fitted maximal effect.

SMILES | MARV entry inh | Lassa entry inh | Cruzain noTriton | SARS PLP yeast | RE007 growth inh | 2A StopGo | NS1 function inh | Cruzain Triton
CCn1ccc2cc(S(=O)(=O)N3CCCN(C(=O)NCCOC)CC3)ccc21 | / | 15%[46.1 µM] | 3% | / | / | -8% | / | -0.8%
COc1cnc(-c2ccccn2)nc1Oc1ccccc1Cl | 10% | -6% | 13% | 8% | 19% | 24% | -27% | -0.3%
CCOc1ccc(NC(=O)CN(c2cc(C)cc(C)c2)S(=O)(=O)c2c(C)noc2C)cc1 | / | / | -18% | -5% | 9% | ? | -6% | -6.8%
Cc1ccc([N+](=O)[O-])cc1S(=O)(=O)NCC1COc2ccccc2O1 (stereo not given) | / | / | / | -7% | -13% | 12% | -29% | /
COc1ccc(NC(=O)c2ccco2)cc1S(=O)(=O)N1CCOCC1 | -7% | 2%[46.1 µM] | / | 6% | -6% | -7% | / | /
COc1ccc(C(CC(=O)O)NC(=O)COc2ccccc2)cc1 (stereo not given) | 4% | 0% | 4% | 1% | -11% | 2% | -4% | -0.9%
Cc1cc(C)c2nc(SCC(=O)NCC3CCCO3)c(C#N)cc2c1 (stereo not given) | -5%[46.1 µM] | 10% | / | 1% | 4% | -2% | 1% | /
NS(=O)(=O)c1cccc(NC(=O)CN2CCC(Cc3ccccc3)CC2)c1 | -18%[46.1 µM] | -15% | / | 1% | -2% | -24% | / | /
Cc1cc(-c2ccc(C)c(S(=O)(=O)Nc3cccc(C)n3)c2)on1 | / | ? | -2% | / | / | 64%[activator] | / | 1.6%
Cc1cc(C=O)c(C)n1-c1ccc(NC2CCCCC2)c([N+](=O)[O-])c1 | ? | ? | -7% | -35% | 18% | 32µM* | -100% | -0.1%
CCOc1ccc(NS(=O)(=O)c2ccc(C(=O)N(C)CC(=O)Nc3ccc(OC)cc3)cc2)cc1 | 2% | -1% | / | -4% | -5% | -16% | / | /
COc1ccc2c(=O)c(C(=O)NCCc3ccccc3)c[nH]c2c1 | / | / | / | 0% | 9% | 0% | 19% | /
O=C(NCc1ccc(F)cc1Cl)c1cc(=O)[nH]c2ccc(S(=O)(=O)N3CCCCC3)cc12 | / | 1%[46.1 µM] | -4% | / | / | -14% | / | 1.5%
COc1ccc2cc(/C=N/NC(=O)CSCc3ccc([N+](=O)[O-])cc3)c(Cl)nc2c1 | ? | -26% | 4% | 0% | 4% | / | 9% | -0.2%
O=[N+]([O-])c1cc(C(F)(F)F)ccc1N1CCN(CCO)CC1 | 17%[46.1 µM] | / | / | 1% | 2% | 1% | / | /
O=C(NCc1ccc(N2CCCC2=O)cc1)c1cn(Cc2ccccc2)nn1 | 16% | 25% | -8% | 3% | 4% | 12% | -7% | 7.3%
Cc1cc(C(=O)OCC(=O)N(CC(C)C)c2c(N)n(Cc3ccccc3)c(=O)[nH]c2=O)c2ccccc2n1 | 5% | -13% | / | 11% | 6% | -18% | / | /
O=C(c1cc(N2C(=O)C3C4CCC(C4)C3C2=O)ccc1Cl)N1CCCCCC1 (stereo not given) | 15%[46.1 µM] | -2%[46.1 µM] | / | 2% | 9% | -15% | / | /
COc1c(-c2ccccc2)oc2c(ccc3occc32)c1=O | / | / | 11% | 1% | -9% | 0% | / | -2.1%
CCOc1ccccc1NC(=S)Nn1cnnc1 | / | / | / | 1% | -4% | ? | 2% | /
C=CCN1C(=O)c2ccc(C(=O)N3CCN(S(=O)(=O)c4cc(C)ccc4C)CC3)cc2C1=O | ? | 1% | / | -3% | 14% | -15% | / | /
CCS(=O)(=O)c1nc(S(=O)(=O)c2ccc(C)cc2)c(NCC(C)C)s1 | 8%[46.1 µM] | -22%[46.1 µM] | 2% | / | / | 47%[activator] | / | -6.3%
Cc1ccnc(NS(=O)(=O)c2ccc(NC(=O)c3cc(-c4ccccc4)nc4ccccc34)cc2)n1 | ? | -2% | 29% | -17% | 1% | -3% | 22% | -4.5%
O=C1c2ccccc2C(=O)N1CC(O)Cn1nnc2ccccc21 (stereo not given) | 9% | -13% | -14% | 5% | 11% | -15% | 3% | -0.3%
CCCN1CCCC(C(=O)c2cc(C)c(OC)c(C)c2)C1 (stereo not given) | ? | ? | / | 10% | -12% | -10% | -7% | /
O=S(=O)(Nc1ccccc1)N1CCCCC1 | 6%[46.1 µM] | 6%[46.1 µM] | / | / | 0% | 3% | / | /
CC(=O)N(c1ccc(Br)cc1)C1C=CS(=O)(=O)C1 (stereo not given) | / | / | -1% | 3% | 8% | 0% | 14% | 5.6%
O=C1c2ccccc2C(Nc2ccc(S(=O)(=O)N3CCCCC3)cc2)N1Cc1ccco1 (stereo not given) | 6% | / | -17% | -4% | 1% | 0% | 14% | -6.3%
CCOC(=O)C1CCN(C(=O)Nc2c(-c3ccccc3)noc2C)CC1 | 17% | -20% | / | 2% | 14% | 10% | 0% | /
O=c1cc(O)n(-c2ccccc2F)c(=S)[nH]1 | 22% | 5% | -3% | -5% | 12% | 9% | 3.2µM* | 1.4%
COc1ccc(C(=O)O/N=C(/C)c2cccs2)cc1 | -22%[46.1 µM] | -4% | 6% | -31% | 40µM* | ? | -166% | -2.3%
O=C(CN1N=C(c2ccccc2)CCC1=O)NCc1ccccc1 | 25%&25%[46.1 µM] | ? | / | -2% | 11% | -1% | / | /
O=C(O)c1cc(NC(=O)c2ccc3c(c2)C(=O)N(Cc2ccccc2)C3=O)cc(C(=O)O)c1 | ? | 18% | / | -2% | 1% | -7% | 4% | /
CN1CCCN(Cc2cccc3ccccc23)CC1 | / | / | / | 2% | 3% | -12% | 7% | /
O=S(=O)(NCc1ccccn1)c1ccc(Br)s1 | 14% | 1% | -5% | -2% | 10% | 44%[activator] | -8% | 0.9%
COC(=O)c1ccc(C2C(C#N)=C(N)Oc3cc(N)ccc32)cc1 (stereo not given) | ? | 12%[46.1 µM] | / | ? | -17% | -9% | 9% | /

Taken from above:
For RE007 growth inh, Cc1cc(C(=O)OCC(=O)N(CC(C)C)c2c(N)n(Cc3ccccc3)c(=O)[nH]c2=O)c2ccccc2n1 is entered as 6%
For SARS PLP yeast, CCOc1ccccc1NC(=S)Nn1cnnc1 is entered as 1%
For SARS PLP yeast, Cc1ccc([N+](=O)[O-])cc1S(=O)(=O)NCC1COc2ccccc2O1 (stereo not given) is entered as -7%
For RE007 growth inh, CC(=O)N(c1ccc(Br)cc1)C1C=CS(=O)(=O)C1 (stereo not given) is entered as 8%
For Cruzain Triton, O=C(NCc1ccc(F)cc1Cl)c1cc(=O)[nH]c2ccc(S(=O)(=O)N3CCCCC3)cc12 is entered as 1.5%

Three consecutive compounds already listed, quoted:
SMILES | MARV entry inh | Lassa entry inh | Cruzain noTriton | SARS PLP yeast | RE007 growth inh | 2A StopGo | NS1 function inh | Cruzain Triton
CCCN1CCCC(C(=O)c2cc(C)c(OC)c(C)c2)C1 (stereo not given) | ? | ? | / | 10% | -12% | -10% | -7% | /
O=S(=O)(Nc1ccccc1)N1CCCCC1 | 6%[46.1 µM] | 6%[46.1 µM] | / | / | 0% | 3% | / | /
CC(=O)N(c1ccc(Br)cc1)C1C=CS(=O)(=O)C1 (stereo not given) | / | / | -1% | 3% | 8% | 0% | 14% | 5.6%

Next section.
SMILES | MARV entry inh | Lassa entry inh | Cruzain noTriton | SARS PLP yeast | RE007 growth inh | 2A StopGo | NS1 function inh | Cruzain Triton
CCc1c(O)nc2sc3ccccc3n2c1=O | 5% | 7% | -7% | -8% | 3% | -15% | -80% | 2.7%
CCn1c(=O)[nH]c2cc(C(=O)Nc3cc(C)cc(C)c3)ccc2c1=O | ? | ? | / | -2% | -12% | -29% | 1% | /
CN(C)CCn1ccc(O)c(Cc2ccc(Cl)cc2)c1=O | / | / | / | 1% | 10% | -12% | 6% | /
COc1ccc(C(=O)c2cnc[nH]2)cc1 | 1%[46.1 µM] | -4% | / | 0% | 0% | 22% | -1% | /
O=C(Nc1ccccc1N1CCOCC1)c1ccc(Br)o1 | -5% | -10% | -3% | -3% | 14% | 23% | -14% | -5.0%
O=C(CSc1nnc(CNc2ccc(Cl)cc2)o1)Nc1nc2ccccc2s1 | 4% | ? | ? | -1% | 4% | 27% | 9% | -1.9%
C(=N\NCc1ccccc1)/c1ccc2nccnc2c1 | / | / | / | -1% | 1% | 53%[activator] | 3% | /
O=C(Nc1nc(-c2ccccc2)cs1)c1ccc(N2CCOCC2)c([N+](=O)[O-])c1 | ? | ? | ? | -1% | -15% | ? | 15% | -1.6%
O=C(O)c1ccc(/C=N/O)cc1 | -4%[46.1 µM] | 21% | / | -1% | -2% | -3% | 1% | /
Cc1[nH]c2ccccc2c1C(=O)CSc1nncn1C | 0% | 17% | ? | -9% | 4% | 8% | 0% | -2.6%
CCCOc1ccc(C2C(C(=O)c3cc4ccccc4o3)=C(O)C(=O)N2c2cc(C)on2)cc1 (stereo not given) | / | / | / | -9% | -23% | 0% | 14% | /
CCCC(=O)Nc1ccc2oc(=O)ccc2c1 | -5% | -28% | / | 6% | 2% | -9% | / | /
Cc1cccc(CN2C(=O)N/C(=C/c3cc(C)n(-c4cc(C)ccn4)c3C)C2=O)c1 | ? | 11µM* | ? | -2% | -22% | -30% | 13% | -7.0%
COc1ccc(C(=O)CSc2nnc(CNC(=O)c3ccccc3F)n2C)cc1OC | 7%[46.1 µM] | 0%[46.1 µM] | / | 1% | 2% | -2% | 0% | /
Cc1nnc(NC(=O)CCn2c(=O)oc3ccccc32)s1 | -4%[46.1 µM] | -1% | / | -1% | -7% | 14% | 3% | /
O=C(O)c1ccc(NS(=O)(=O)c2cc(Cl)sc2Cl)cc1 | 0%[46.1 µM] | / | / | 0% | -29% | 20% | 4% | /
Cc1ccc(S(=O)(=O)Oc2ccc(/C=C(/NC(=O)c3ccccc3)C(=O)Nc3ccccc3)cc2)cc1 | -9% | 5% | 13µM* | 4% | 3% | -21% | ? | 1.5%
Cc1cc(C(=O)NC(C)C2CCCO2)c(C)o1 (stereo not given) | / | / | / | -3% | -20% | 0% | 7% | /
CCCn1c(N)c(C(=O)CN(C)CC(=O)Nc2cc(C)ccc2C)c(=O)[nH]c1=O | -7% | -25% | / | 2% | 1% | ? | / | /
